Screens: PubChem, several laboratories
YopH inh = YopH tyrosine phosphatase inhibitors, primary screen, biochemical, fluorescence Ex485/Em525 | 0.16% of 140,000 active | inhibition, %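 (about 10 µM by stock and volumes)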;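 active = inhibition of 50% or more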;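 also: controls were vehicle for no effect and minimum signal wells for full effect; inactives centre near -20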
RecA intein inh = Mtb RecA intein splicing inhibitors, primary screen, biochemical, fluorescence, HTS. 0.75% of 290,000 active. AID 2221, 2009. inhibition, %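 (about 9 µM by stock and volumes)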. cell-free RecA intein splicing; in the data active = inhibition above about 30%; inconclusive = no clear call, values can overlap the other calls;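 also: 0% = vehicle wells and 100% = reference inhibitor control wells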
Target sequence (P9WHJ3 whole entry, looked up): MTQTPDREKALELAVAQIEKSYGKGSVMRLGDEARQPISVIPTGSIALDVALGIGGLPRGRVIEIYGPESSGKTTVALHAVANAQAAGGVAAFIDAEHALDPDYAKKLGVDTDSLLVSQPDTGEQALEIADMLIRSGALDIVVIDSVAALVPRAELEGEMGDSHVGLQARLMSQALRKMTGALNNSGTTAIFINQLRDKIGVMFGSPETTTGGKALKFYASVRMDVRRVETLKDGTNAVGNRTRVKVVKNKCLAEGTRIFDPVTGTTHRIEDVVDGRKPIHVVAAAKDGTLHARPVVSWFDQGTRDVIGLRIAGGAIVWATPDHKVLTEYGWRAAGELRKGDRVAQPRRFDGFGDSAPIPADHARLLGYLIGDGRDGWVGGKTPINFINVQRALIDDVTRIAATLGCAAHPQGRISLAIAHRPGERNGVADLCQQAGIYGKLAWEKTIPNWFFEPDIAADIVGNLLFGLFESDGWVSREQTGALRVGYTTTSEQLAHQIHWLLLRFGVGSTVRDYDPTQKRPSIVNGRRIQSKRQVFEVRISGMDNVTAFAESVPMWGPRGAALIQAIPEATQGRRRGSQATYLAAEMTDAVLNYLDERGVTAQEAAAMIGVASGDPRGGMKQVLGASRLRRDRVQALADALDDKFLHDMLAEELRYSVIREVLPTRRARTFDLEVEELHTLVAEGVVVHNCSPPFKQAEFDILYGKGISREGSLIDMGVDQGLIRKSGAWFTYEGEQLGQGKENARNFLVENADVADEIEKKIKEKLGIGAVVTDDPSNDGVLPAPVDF
Arbovirus anti = antivirals against arbovirus infection, primary screen, cell-based, full library, 10K replicate subset. 0.37% of 200,000 active. inhibition, % at 10 µM. AID 1251, 2008. arbovirus infection cell-based antiviral screen;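 active = inhibition from about 30%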;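 also: bluetongue infection of BSR cells; cell survival read as ATP light after 72 h; 0% = infected wells without compound and 100% = uninfected wells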
Mtb H37Rv = M. tuberculosis H37Rv growth inhibitors, H37Rv strain (AID 1626); inhibition, % at 10 µM, or IC50 in µM where a hit was titrated; M. tuberculosis H37Rv growth inhibition; higher % means a stronger effect; 0.95% of 220,000 active;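 active = confirmed in a dose series; inconclusive = inhibition above 80% but not taken into the dose series; inactive = below 80% or under 30% at every dose of the series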;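 also: bacteria incubated seven days before Alamar blue readout; 0% = bacteria only wells and 100% = bacteria with antibiotic wells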
Mtb betalactam = beta-lactam sensitization of Mtb H37Rv, H37Rv; AID 434955, 2010; 0.27% of 330,000 active; inhibition, % at 25 µM; M. tuberculosis H37Rv growth with meropenem, percent inhibition; hits of this screen are not shown here;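 active = about 74% or more and at least 40 points above the plate without the antibiotic, then above 30% in a dose series; inconclusive = first-round hits that could not be retested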;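 also: growth measured after seven days incubation then overnight dye step; 0% = bacteria only wells and 100% = bacteria with antibiotic; twin plates without the antibiotic show which effects depend on it; some results filed as inactive read as strong as hits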
Arbovirus anti repeat = further read-out of Arbovirus anti, marked with its call; inhibition, %; measured here: 10K subset replicate screen; many hits read low in the repeat;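 first of two repeat runs on a subset; 0% = infected and 100% = uninfected wells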
* marks the source's active call; other numbers are inactive results; ? = inconclusive; nt = not tested or not shown. This is a subset. The share of hits here may be higher or lower than overall.

SMILES	YopH inh	RecA intein inh	Arbovirus anti	Mtb H37Rv	Mtb betalactam	others
CCN1CCC(N2CCN(c3ccccc3OC)CC2)CC1	nt	0.4	nt	nt	-1
Cc1cc(Cl)ccc1C(=O)C1CCCN(C(=O)c2cscn2)C1 (centres undefined)	nt	-2.0	6	6%	-10
O=C(NNC(=O)c1ccccc1Cl)c1ccccc1Cl	nt	-3.3	nt	-3%	-2
CCCCC(=O)Nc1nc(C)c(-c2csc(Nc3ccc(Cl)cc3)n2)s1	12	13	-12	?	98
CCOC(=O)N1CCN(C(=O)COc2ccc(S(=O)(=O)Nc3ccc(OCC)cc3)cc2)CC1	14	2.4	8	5%	-1
COc1ccc2nc(N(CCN(C)C)C(=O)c3ccc4ccccc4c3)sc2c1	nt	2.4	nt	nt	-2
C=CCNC(=O)C(=O)NCC1CCCN1CC (centres undefined)	nt	-3.0	0	-1%	-8
CCOc1ccc(-c2c(C)n([O-])c3c([n+]2=O)CCCCC3)cc1	nt	-2.0	2	1%	-1
CNC(=S)N(C)CCc1cc2c(c(OC)c1/C=C1/C(=O)NC(=O)N(C)C1=O)OCO2	nt	-5.3	nt	-4%	-8
C=CCn1c(C)cc(C(=O)Cn2ncc(Cl)c(Cl)c2=O)c1C	-24	20	-30	36%	92

The final 3 records of the part above are carried over, then new ones follow.
SMILES	YopH inh	RecA intein inh	Arbovirus anti	Mtb H37Rv	Mtb betalactam	others
CCOc1ccc(-c2c(C)n([O-])c3c([n+]2=O)CCCCC3)cc1	nt	-2.0	2	1%	-1
CNC(=S)N(C)CCc1cc2c(c(OC)c1/C=C1/C(=O)NC(=O)N(C)C1=O)OCO2	nt	-5.3	nt	-4%	-8
C=CCn1c(C)cc(C(=O)Cn2ncc(Cl)c(Cl)c2=O)c1C	-24	20	-30	36%	92
COc1ccc(S(=O)(=O)N2CCCCC2C)cc1 (centres undefined)	nt	1.4	nt	nt	4
CCOc1ccccc1N(C(=O)Nc1ccc(Cl)cc1)C1=NC(C)CS1 (centres undefined)	-29	-0.4	-9	1%	-4
CCN(CC)S(=O)(=O)c1ccc(NC(=O)C(C)N(c2ccccc2)S(C)(=O)=O)cc1 (centres undefined)	-31	-7.7	7	-1%	-2
Cc1nnc(NC(=O)CSC2CCCCC2)s1	-41	0.9	7	1%	4	Arbovirus anti repeat=-2
COc1ccccc1OCCCCOc1ccccc1F	-48	11	0	9%	-4
Cc1ccc(NC(=O)CCN2C(=O)c3ccccc3C2=O)cc1	nt	-1.0	nt	nt	-3
Cc1c(-c2ccccc2)nc2ccccc2c1C(=O)OCC(=O)Nc1ncc(C(F)(F)F)cc1Cl	-18	2.3	7	-2%	2
COc1ccc(/C=C2\OC(=S)N(C)C2=O)cc1	8	2.4	2	-9%	1
COC(=O)C(C)n1cnc2c(nnn2-c2ccc(OC)cc2)c1=O (centres undefined)	-56	1.6	-2	2%	0
CC(C)Cn1c(-c2csc(C(C)C)c2)n[nH]c1=S	nt	-3.6	8	3%	0
CC(=O)c1c(N2CCOCC2)nc2ccc(Br)cc2c1-c1ccccc1	nt	25	nt	0%	-1
CN(C)C(=S)Oc1ccccc1-c1ccccc1OC(=S)N(C)C	nt	-0.2	nt	nt	3
CN(C)c1nc(Cl)cc(N2CCOCC2)n1	-18	0.2	-5	2%	5
CC(=O)Oc1ccc(/C=C/c2nc3ccccc3c(=O)o2)cc1	nt	-2.9	nt	nt	55
S=C(Nc1cccnc1)NC1CCCC1	-22	1.7	-11	-5%	-3
COc1ccc(NC(=O)CSc2nc(C)cc(C)n2)c([N+](=O)[O-])c1	nt	-0.8	0	0%	8
COc1ccc(-c2nc(CSCC(=O)NC3CCCC3)c(C)o2)cc1OC	nt	-0.7	nt	nt	5
O=C1C2C3C=CC(CC3)C2C(=O)N1/N=C/c1ccccc1O (centres undefined)	-21	-1.9	-4	-1%	20
COC(=O)C1=C(C)N(CCc2ccccc2)C(=O)C1(NS(=O)(=O)c1ccc(NC(C)=O)cc1)C(F)(F)F (centres undefined)	-27	-2.7	-5	-5%	33
O=C1CSc2ccc(C(=O)Nc3cccc(S(=O)(=O)Nc4ccc(Br)cc4)c3)cc2N1	nt	20	-22	7µM*	99
C=CCCCOc1ccc(C(=O)O)cc1	-30	-5.9	-3	-6%	-4
Cc1cccc(-c2noc(C3CCCCC3)n2)c1	0	-1.7	5	-13%	-4
O=C(O)CC/C(=C\c1ccccc1[N+](=O)[O-])c1nc2ccccc2s1	nt	13	11	0%	-2
Cc1cccc(C)c1NC(=O)Cn1nnc(-c2ccc(CN3CCC(C)CC3)cc2)n1	nt	-1.6	2	2%	-1
CC(C)CN(C(=O)CN1CCN(c2ccc([N+](=O)[O-])cc2)CC1)c1c(N)n(CC(C)C)c(=O)[nH]c1=O	nt	2.1	9	8%	5
COc1ccccc1NC(=O)CSc1nc2ccccc2c(=O)n1C	nt	0.4	nt	nt	5
O=C(c1cnc2ccc3ccccc3c2c1)c1cc(F)ccc1O	nt	-0.4	nt	19%	5
Cn1nccc1C(=O)Nc1cccc(S(=O)(=O)N2CCOCC2)c1	nt	-3.2	nt	nt	-6
CNc1nc(-c2ccccn2)nnc1-c1ccccc1	-21	3.1	-33	8.5µM*	93
O=[N+]([O-])c1cccnc1-n1cnc2ccccc21	-26	-6.9	-5	-4%	4
CCOc1ccc2nc(N3CCCC(C(=O)NCC4CCCO4)C3)sc2c1 (centres undefined)	nt	-0.7	nt	-5%	-2
O=C1CCCC2=C1C1(CCCCC1)N=C(Nc1nc3ccccc3o1)N2	-23	-0.9	-10	86%	-4
C/C(=N\O)c1cc(Cl)ccc1O	nt	-0.4	nt	-6%	-5
Fc1ccccc1CNc1ccc(Cl)cc1	-25	0.7	-2	-6%	5
Cc1cc(C)n2nc(C(=O)OC(C)C(=O)c3cc(C)c(C)cc3C)nc2n1 (centres undefined)	nt	1.6	nt	nt	-3
CCOC(=O)c1[nH]c(C)c(C(=O)OCc2c(C)noc2C)c1C	1	2.4	-22	-4%	-7
O=C(CCc1nc2ccccc2c(=O)[nH]1)Nc1ccc(F)c([N+](=O)[O-])c1	nt	-5.6	6	0%	-3
Cc1ccc(NC(=O)CCNS(=O)(=O)c2ccc3[nH]c(=O)oc3c2)c(Cl)c1	nt	-2.3	nt	nt	2
Cc1cc(C)c2c(c1)/C(=C/C(=O)c1ccc(Br)s1)C(=O)N2	-12	-1.6	-36	2%	-3
COc1cc(S(=O)(=O)N(Cc2ccccn2)Cc2ccco2)ccc1-n1cnnn1	-12	-0.5	9	-5%	7
O=C(Cn1cc(C(F)(F)F)ccc1=O)N/N=C/c1ccc(Cl)cc1	-49	0.4	-2	7%	-5
COc1ccccc1N1CCN(C(=O)C(Cc2ccccc2)NC(=O)C2CCCCC2)CC1 (centres undefined)	-32	1.8	-4	0%	6
CC(C)CC(c1nnnn1Cc1ccco1)N1CCN(c2cccc(Cl)c2)CC1 (centres undefined)	-7	10.0	-15	8%	3
Cc1cc(NC(=O)c2ccc(N(C)S(=O)(=O)c3ccccc3)cc2)no1	-3	3.8	5	-2%	0
COc1ccc(OCCn2cc(/C=N/NC(=O)c3ccncc3)c3ccccc32)cc1	-7	4.9	16	?	98
COc1cccc(Sc2ccccc2CN(C)C)c1	0	-0.5	0	4%	1
O=C1c2ccccc2NC(c2ccccn2)N1NS(=O)(=O)c1ccccc1 (centres undefined)	nt	-1.8	-5	1%	-5
CC(C)=C1C2C=CC1C(C(=O)Nc1cc(C)ccc1C)C2C(=O)O (centres undefined)	-13	0.2	-2	-5%	-8	Arbovirus anti repeat=-1
COc1ccccc1CC(=O)NCc1csc(-c2cccs2)n1	nt	0.9	nt	8%	-6
CCOC(=O)N1CCC(NC(=O)CCCN2C(=O)CSc3ncccc32)CC1	-48	-1.2	-1	-5%	-13

Next records.
SMILES	YopH inh	RecA intein inh	Arbovirus anti	Mtb H37Rv	Mtb betalactam	others
COc1ccc(C(=O)Cn2c(Cl)nc3c2c(=O)n(C)c(=O)n3C)cc1	nt	-0.4	nt	-7%	-9
Cc1ccc(/C=C/C(=O)O)cc1S(=O)(=O)NCc1cccnc1	nt	0.1	nt	-6%	-6
CN(c1ccccc1)S(=O)(=O)c1cccc(Cl)c1Cl	nt	2.0	nt	-5%	-1
COC(=O)[C@H](CCSC)NC(=O)Nc1ccc(C)cc1C	-5	0.5	2	-3%	2
Cc1cc(/C=C2/C(=O)NC(=O)N(Cc3ccco3)C2=O)c(C)n1-c1ccc(C(=O)O)cc1	nt	-0.4	6	-7%	-3
Cc1cc(C)cc(NC(=O)CSc2nnc(-c3ccccc3C)o2)c1	-7	-0.9	-6	-2%	-4
Cc1ccc(NC(=O)CSc2nnc(-c3ccccc3Br)o2)cc1C	-29	0.5	-6	13%	-3
O=C(NC1CC1)C1=C[C@H](C2CCCCC2)C[C@H](OCc2ccc(CO)cc2)O1	nt	5.2	-5	-9%	7
CCOC(=O)C1(Cc2cccc(Cl)c2)CCCN(C(=O)CCC(=O)N(C)C)C1 (centres undefined)	nt	4.9	10	4%	-1
Cc1cc(S(=O)(=O)Nc2ccc(C(=O)NCC3(N(C)C)CCCCC3)cc2)ccc1F	nt	-7.4	nt	nt	-8
COc1ccccc1N(CC(=O)NCc1ccccc1)C(=O)CCC(=O)Nc1cc(C)ccn1	2	0.7	0	-1%	-5
CN(C)N=Nc1nc2c(c(=O)n(C)c(=O)n2C)n1C	nt	-0.4	nt	1%	-2
CCC1CCCCN1C(=O)CNCC1CCCO1 (centres undefined)	nt	-2.2	14	2%	-5
COc1ccc(S(=O)(=O)NCC2CCCN(C(=O)c3sccc3C)C2)cc1 (centres undefined)	nt	1.6	-1	-4%	-5
COc1ccnc(Oc2ccccc2)c1C(=O)N/C=N/OCc1ccccc1	nt	nt	-3	6%	-4
CC(=O)c1c(C)nc(-c2ccccc2)n1O	-10	3.7	0	2%	-22
COc1ccc(CN2CCNC(=O)C2CC(=O)N(C)Cc2cc(C)no2)cc1OC (centres undefined)	nt	-1.6	nt	nt	-6
Cc1ccc(NC(=O)Cn2c(=O)oc3cc(S(=O)(=O)N4CCC(C)CC4)ccc32)cc1C	-2	0.1	0	6%	0
Cc1ccc(C(NC(=O)C(C)C)c2cc([N+](=O)[O-])c3cccnc3c2O)cc1 (centres undefined)	-13	1.3	-20	-2%	15
O=S(=O)(Cc1ccccc1)NCCc1ccc(F)cc1	nt	-5.3	nt	nt	-4

The last three compounds of the part above come first, to join the parts.
SMILES	YopH inh	RecA intein inh	Arbovirus anti	Mtb H37Rv	Mtb betalactam	others
Cc1ccc(NC(=O)Cn2c(=O)oc3cc(S(=O)(=O)N4CCC(C)CC4)ccc32)cc1C	-2	0.1	0	6%	0
Cc1ccc(C(NC(=O)C(C)C)c2cc([N+](=O)[O-])c3cccnc3c2O)cc1 (centres undefined)	-13	1.3	-20	-2%	15
O=S(=O)(Cc1ccccc1)NCCc1ccc(F)cc1	nt	-5.3	nt	nt	-4
Cc1ccc(NC(=S)N(CCCN2CCN(C)CC2)Cc2cccs2)cc1C	nt	1.1	11	4%	-4
O=C(CSc1nnc(CNC(=O)c2cccs2)o1)NC1CCCC1	24	nt	-1	-5%	0
CCC(Oc1ccccc1)C(=O)NCCCN1CCOCC1 (centres undefined)	nt	-1.4	nt	nt	-19
COc1ccc2[nH]cc(C(=O)CNc3nc(C)cs3)c2c1	-36	1.3	-4	5%	-11
O=C(NCC1CC1)c1onc(CSc2nc3ccccc3[nH]2)c1C(=O)NCC1CC1	nt	3.5	nt	nt	-1
CCN(CC)CC(=O)NCc1cc(-c2ccc(OC)cc2)no1	-1	-2.3	8	-5%	1
OCCNc1nc(Nc2cc(Cl)ccc2OC2CCCC2)nc(N2CCCC2)n1	nt	1.1	nt	50%	69
Cc1ccccc1OCCn1cc(C(=S)N2CCN(C)CC2)c2ccccc21	nt	4.3	-12	-3%	4
CC(C)c1ccc(NC(=O)CSC(C)c2nc3ccccc3c(=O)[nH]2)cc1 (centres undefined)	nt	-1.1	nt	1%	-5
CCOC(=O)CCc1c(C)nc2ncnn2c1C	-39	-5.9	-4	0%	-14
COc1ccc(C(=O)NCCS(=O)(=O)N2CCN(C(=O)c3ccco3)CC2)cc1	nt	-2.4	nt	nt	0
O=C(NCc1ccc2c(c1)OCO2)Nc1ccc([N+](=O)[O-])cc1	nt	-2.2	nt	nt	4
COc1ccc(N(CC(=O)N2CCc3ccccc3C2)S(C)(=O)=O)cc1Cl	nt	-2.0	nt	nt	-2
CSc1ncccc1C(=O)NC1CC(C)(C)Cc2c1cnn2-c1ccccc1C (centres undefined)	nt	1.7	nt	nt	-1
CCOCCOC(=O)COc1ccc(N2C(=O)c3ccccc3C2=O)cc1	-37	-7.3	0	5%	nt
